# TRPML1 inh: blocks the human TRPML1 channel; Q9GZU1; TRPML1-inducible cells, Ca2+ dye fluorescence, FDSS; stronger effect = lower value; inhibition of EC80 agonist-evoked calcium signal; activity change, negative = inhibition, % (test concentration not listed); hit rate 0.02% among 390,000; AID 624415; in the data active means activity change below about -50%; inconclusive means about -30% to -50%; inactive means above about -30%;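 also: stimulus is agonist 54-4 at its EC80 concentration; % is scaled to controls: 0 for no effect and ±100 for the full control effect; compound concentration not given in the record; the text of the record puts the active cut at -80%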
# Target sequence (Q9GZU1 whole entry, looked up): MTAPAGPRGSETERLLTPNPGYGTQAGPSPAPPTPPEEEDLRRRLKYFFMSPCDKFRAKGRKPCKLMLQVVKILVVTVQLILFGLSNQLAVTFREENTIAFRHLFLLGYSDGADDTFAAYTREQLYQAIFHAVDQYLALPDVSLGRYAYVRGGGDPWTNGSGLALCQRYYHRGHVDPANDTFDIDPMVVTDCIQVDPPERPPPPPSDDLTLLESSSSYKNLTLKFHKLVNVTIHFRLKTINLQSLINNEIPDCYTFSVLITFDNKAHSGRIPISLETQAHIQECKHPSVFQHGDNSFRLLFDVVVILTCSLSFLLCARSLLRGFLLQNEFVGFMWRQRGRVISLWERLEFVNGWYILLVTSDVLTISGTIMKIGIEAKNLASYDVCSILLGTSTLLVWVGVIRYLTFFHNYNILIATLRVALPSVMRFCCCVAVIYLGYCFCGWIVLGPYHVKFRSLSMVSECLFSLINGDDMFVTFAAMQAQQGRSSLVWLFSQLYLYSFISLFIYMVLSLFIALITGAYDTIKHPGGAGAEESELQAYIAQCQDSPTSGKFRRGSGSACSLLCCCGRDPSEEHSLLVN
#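 Tet-induced TRPML1-DL cells loaded with Ca8 no-wash calcium dye were read kinetically on FDSS. Compound addition was followed by EC80 agonist 54-4 (4 uM final); inhibition was read over 110 s.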
# Six1-Eya2 inh: blocks human Six1 binding to Eya2 | AlphaScreen GST-Six1/His-Eya2 binding, biochemical; stronger effect = lower value; control for the full effect not named in the record | activity change, % (concentration not given with the values) | hit rate 0.56% among 360,000 | AID 651725; in the data active = activity change below about -65%; inconclusive = about -30% to -65%; inactive = above about -30%; also: % is scaled to controls: 0 for no effect and ±100 for the full control effect
#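 Homogeneous AlphaScreen proximity assay pairing GST-Six1 with His-tagged Eya2 (added as 5X mix: 250 nM and 500 nM) in 50 mM Tris pH 8.0, 300 mM NaCl, 1 mM TCEP. Glutathione donor and nickel acceptor beads; 1 h, 37 °C, dark.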
# PINK1 expr mod: changes PINK1 expression | PINK1 immunofluorescence, high-content cytometry, 24 h | Potency, µM (series often up to 76.6 µM), for the others: at the top dose activation (PINK1 increase), most hits filed as activators | hit rate 0.2% among 410,000 | AID 624263; active = well fitted activation curve with a large enough effect; inconclusive = small, poorly fitted or top-dose-only effect; inactive = flat fitted curve, though single readings scatter; cell line not stated here;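 also: potency is read from the fitted curve at half-maximal effect; % of control where 0% means no effect; nearly all actives have a fitted effect of over 65% in size; a mitochondrial uncoupler was the plate control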
#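 PINK1 protein level read as immunofluorescence by microplate cytometer in a fixed, stained stable cell line after 24 h exposure to five compound concentrations, with CCCP as control.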
# TRPML1 ag: agonists of human TRPML1 channel; Q9GZU1; TRPML1-expressing cells, Ca2+ dye fluorescence, FDSS; host cell line not named in the record; reference of the full effect not given here; activation, % (test concentration not listed); hit rate 0.12% among 410,000; AID 624414; in the data active = activation above about 50%; inconclusive = about 30% to 50%; inactive = below about 30%; also: 0% is about no effect; the text of the record puts the active cut at 80%
#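 Tetracycline-induced TRPML1-DL cells are seeded and incubated overnight before loading with a no-wash Ca2+ dye and quencher. Agonist activity is taken from the 110 s fluorescence read following compound pin-transfer on an FDSS, before EC80 54-4 challenge.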
# D2 potentiator: positive allosteric modulators of human D2 dopamine receptor; P14416; DiscoveRx D2 beta-arrestin cells, luminescence, 90 min; 100% = 57 uM dopamine signal; potentiation, % (concentration not given with the values); hit rate 0.23% among 360,000; AID 624464; active = potentiation of 50% or more; inconclusive = 30% to 50%; inactive = 30% or less;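 also: compound concentration not given in the record; tested on top of an EC20 dose of dopamine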
# Target sequence (P14416 whole entry, looked up): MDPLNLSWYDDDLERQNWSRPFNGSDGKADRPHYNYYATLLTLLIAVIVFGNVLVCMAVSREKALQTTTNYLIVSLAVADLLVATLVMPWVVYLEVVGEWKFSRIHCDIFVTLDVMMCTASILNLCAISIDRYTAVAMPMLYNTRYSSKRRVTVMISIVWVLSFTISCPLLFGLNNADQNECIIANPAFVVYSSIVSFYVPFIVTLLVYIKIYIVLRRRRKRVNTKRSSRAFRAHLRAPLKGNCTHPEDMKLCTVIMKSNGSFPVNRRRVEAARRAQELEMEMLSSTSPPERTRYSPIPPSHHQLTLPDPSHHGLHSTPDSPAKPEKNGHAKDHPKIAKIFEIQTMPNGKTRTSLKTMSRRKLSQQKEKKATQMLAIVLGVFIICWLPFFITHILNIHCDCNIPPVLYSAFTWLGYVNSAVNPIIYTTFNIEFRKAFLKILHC
#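 PathHunter D2 cells, attached overnight at 37 deg C, received compound in DMSO plus dopamine at EC20 (50 nM final) for 90 min at 37 deg C. Beta-arrestin recruitment was read as luminescence after 1 h with detection reagent at ambient temperature.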
# D2 ag: activates the human D2 dopamine receptor; DiscoveRx PathHunter D2 beta-arrestin, luminescence, 90 min; 100% = 57 uM dopamine signal; hit rate 0.084% among 360,000; activation, % (test concentration not listed); AID 624465; in the data active = activation above about 40%; inconclusive = about 15% to 40%; inactive = below about 15%; also: compound concentration not given in the record; the text of the record calls up to 30% inactive
#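 Agonist mode: compounds alone added to overnight-plated D2 PathHunter cells for 90 min at 37 C, with 57 uM final dopamine (EC100) defining full response. Beta-arrestin recruitment detected by chemiluminescent reagent, read after 1 h at ambient temperature.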
# Starred values were filed as active, the others as inactive; ? = inconclusive; . = not tested or not shown; [ ] = remark or other dose. No enrichment for hits; any-hit rate near 1%.
SMILES,TRPML1 inh,Six1-Eya2 inh,PINK1 expr mod,TRPML1 ag,D2 potentiator,D2 ag
CC(C)(C)CC(=O)NCCc1csc(-c2ccccc2)n1,.,-1.8,0.0%,.,-5.7,-1.5
O=[N+]([O-])c1ccc(C=Nc2ccccc2)cc1,.,-11.6,-0.5%,-0.7,3.2,2.5
C[C@@H]1CN([C@H](C)CO)C(=O)c2cc(C#C[C@@H](C)O)cnc2O[C@H]1CN(C)C(=O)c1ccc(F)cc1,1.7,4.8,-1.4%,-0.1,4.2,-3.1
O=S1(=O)N=C(Nc2cccc(C(F)(F)F)c2)c2ccccc21,-8.2,.,5.9%,-0.3,.,.
CCSc1nc(N)c2c3c(sc2n1)CCC3,-13.1,0.0,-1.9%,0.7,-10.2,-2.5
Cc1cccc(OCCOC(=O)CN2C(=O)NC3(CCCC3)C2=O)c1,9.9,3.7,4.9%,-0.8,10.0,-3.4
O=C(CC1CCCC1)OCn1nnc2ccccc2c1=O,11.0,10.8,-1.0%,-0.3,-5.3,-1.0
Cc1ccc2nc(NC(=S)NC(=O)c3ccco3)sc2c1,-10.5,-12.8,-1.3%,0.2,-17.9,-1.5
Cc1ccccc1/C=C1\C(=O)Nc2ccc(F)cc21,-7.9,-12.5,2.6%,2.4,-1.2,-0.2
COc1ccc(OC)c(-c2csc(NC(=O)CSCC(=O)Nc3cc(C)on3)n2)c1,-8.7,-17.0,4.0%,-0.2,0.0,-1.1
O=C(/C=C/c1ccco1)Nc1ccccn1,20.8,-16.9,?,-0.4,-4.7,1.7
Cc1ccc(Cn2nnc3c(=O)[nH]c(C4CCN(S(=O)(=O)Cc5ccccc5)CC4)nc32)cc1,20.0,4.8,-0.1%,3.5,0.0,0.5
CN1C(=O)C(CC(=O)N2CCN(C(c3ccccc3)c3ccccc3)CC2)N(C)C1=O (stereo unspecified),11.1,3.1,0.6%,-0.5,-3.9,-2.8
COc1ccccc1C(=O)Nc1nnc(SCC(=O)NC2CCCC2)s1,-6.5,-7.1,1.0%,0.8,-14.0,4.9
c1ccc(-c2nnc(-c3ccccn3)c(-c3ccccn3)n2)nc1,25.5,-21.8,0.3%,-0.2,-16.0,-4.5
Cc1ccc(S(=O)(=O)N2CCC(C(=O)OC(C)C(=O)NCc3ccc4c(c3)OCO4)CC2)cc1 (stereo unspecified),9.1,4.3,15.5%[38.3 µM],-0.1,-12.4,-2.1
O=C(OCC(CO)OC(CO)n1ccc(=O)[nH]c1=O)c1ccccc1 (stereo unspecified),-6.3,24.0,0.7%,-0.2,-4.1,-4.8
O=C(NC1CCCCCC1)C1CC(=O)N(Cc2ccccc2)C1 (stereo unspecified),-5.1,-16.8,1.3%,0.9,1.8,-0.5
O=C(Cn1c2ccc(F)cc2c2nc3n(c(=O)c21)CCS3)Nc1ccc(Cl)cc1F,10.9,5.3,2.5%,-1.0,-9.6,0.8
CCCCn1cnc2c(c(CC#N)nn2-c2ccccc2)c1=N,4.6,-0.6,-1.1%,-0.5,-2.6,2.1
CCSCc1nnc(SCC(=O)Nc2nccs2)n1CC,6.9,16.5,0.1%,-0.6,1.3,-7.2
Cc1occc1C(=O)NCc1ccccn1,10.2,-5.0,0.3%,0.3,-0.8,-0.1
Oc1ccc(Cl)cc1CNCC1CCCO1 (stereo unspecified),-18.1,0.6,-0.7%,-0.3,-14.5,-6.2
C/C(=N\OCC(=O)Nc1ccc2c(c1)OCCO2)c1ccc2c(c1)OCCO2,27.2,7.3,5.5%,1.9,-2.2,-4.6
CC(C)(C)C(=O)NCCn1ccc2ccccc21,-1.8,7.5,0.4%,0.0,-12.0,-5.1
O=C(Oc1ccc(/C=N/NC(=O)c2ccco2)cc1)c1ccccc1,-14.0,-6.8,2.3%,0.8,0.1,-5.6
O=C(NCCCN1CCOCC1)c1cccc(S(=O)(=O)N2CCOCC2)c1,0.7,1.9,1.1%,-0.2,-11.7,-6.5
CC1(C)Nc2cccc3cccc(c23)N1,9.8,-4.8,4.1%,0.7,15.9,7.6
Cc1cccnc1NC(=O)CCc1nnc2ccc(N3CCC4(CC3)OCCO4)nn12,-2.3,6.6,-0.3%,0.8,-5.2,1.6
CCC(C(=O)NCCCN1CCCCCC1)n1nc(C)c2sc3ccccc3c2c1=O (stereo unspecified),-23.5,7.1,-0.2%,0.5,-6.0,-1.3
COCCCNC(=S)NNC(=S)Nc1ccc(OC)cc1,-10.0,-0.3,0.6%,-0.7,-20.4,-7.7
NC(=O)c1nsc(C(=O)N(c2cccc(F)c2)C(C(=O)NCc2ccccc2)c2ccc(O)cc2)c1N (stereo unspecified),-13.5,-19.2,-0.8%,-0.6,8.7,-2.0
CS(=O)(=O)N1CCN(c2ccc(NC(=O)c3cc4ccccc4o3)cc2)CC1,-2.4,6.1,1.8%,0.1,-2.8,-0.1
Cc1cc(C)n(C(=O)CNC(=O)c2ccccc2Br)n1,-9.2,-0.6,0.6%,-1.1,-6.1,-2.1
CC(C)OC(=O)c1ccc(OC(=O)c2cccnc2)cc1,1.0,-16.8,-0.9%,-0.1,-6.4,-1.8
C=C(C)CNC(=O)c1ccc2nc(Cc3ccc(OC)cc3)oc2c1,6.9,18.0,1.6%,-0.3,-3.2,-3.1
CCc1ccccc1NC(=O)c1noc2c1CC(C(C)(C)C)CC2 (stereo unspecified),62.3,.,3.2%,-1.1,.,.
Cc1ccc(-c2cc(C(F)(F)F)n3ncc(-c4ccc(Cl)cc4)c3n2)cc1,0.4,.,0.0%,0.8,.,.
CCCc1cc(=O)[nH]c(SCC(=O)c2cc(C)n(-c3c(C)n(C)n(-c4ccccc4)c3=O)c2C)n1,56.4,2.8,0.1%,0.1,-23.2,0.2
O=C(NCC(F)(F)F)c1cc2c(c(-c3cccc(-c4ccccc4F)c3)n1)[C@H](CCO)N(C(=O)CC1CC1)C2,.,-2.2,0.4%,-0.3,.,.
CC(=O)OCCNc1cc(Sc2nc3ccccc3[nH]2)c2nonc2c1[N+](=O)[O-],6.8,?,1.4%,3.0,-55.1,-6.4
Cc1ccc(C(=O)NC(=S)NCc2ccccc2)cc1,-0.1,-14.5,0.4%,-1.3,-0.6,4.0
CN(C)S(=O)(=O)N1CCN(Cc2ccccc2)CC1,-10.9,4.7,-1.2%[38.3 µM],0.5,-6.0,-0.1
COCCN(C(=O)c1cc(-c2ccccc2Cl)nc2ccccc12)c1c(N)n(CC(C)C)c(=O)[nH]c1=O,-2.0,3.8,1.8%,2.3,-0.9,-3.5
COc1cccc(NC(=O)CSc2nc3c([nH]c4ccccc43)c(=O)n2-c2cccc(Cl)c2)c1,-15.8,.,0.1%,-0.4,.,.
NC(=O)CC1C(=O)N(c2ccccc2)C(=S)N1NC(=O)c1ccccc1 (stereo unspecified),-8.9,-2.1,2.2%,1.8,-2.3,-3.3
COC(=O)[C@]12CCCCC=C1N(Cc1cccc3ccccc13)C(=O)[C@H](CC(=O)NCc1ccc(OC)c(OC)c1)C2,.,-8.5,5.5%,3.6,.,.
Nc1nnc(Cc2ccccc2F)s1,31.9,4.7,1.3%,0.3,5.0,3.8
c1ccc(OCCSc2nc3ccccc3o2)cc1,-5.7,80.4,3.6%[38.3 µM],1.4,-7.3,2.8
O=C(N/N=C1/CCSC1)c1cc(Br)ccc1O,-2.8,-6.8,-1.0%,1.1,-20.4,-2.0
Cc1cccc(-c2noc(CN(C)S(=O)(=O)c3cc(Cl)ccc3Cl)n2)c1,?,22.1,?,2.2,-4.4,2.0
CC(=O)Nc1ccccc1NS(=O)(=O)c1ccc(Cl)cc1,-5.4,7.2,4.9%[38.3 µM],0.6,-8.7,-2.1
C/C=C1\C(OC2OC(CO)C(O)C(O)C2O)OC=C(C(=O)OC)C1CC(=O)OCC1C(C)C(OC(=O)CC2C(C(=O)OC)=COC(OC3OC(CO)C(O)C(O)C3O)/C2=C\C)CC1C(CO)CO (stereo unspecified),.,8.7,-0.1%,.,-17.3,8.5
CCOC(=O)c1c(C)c(-c2ccccc2)n(CC(=O)N2CCN(C)CC2)c1C,59.4,-5.2,-0.7%,0.0,-1.4,-5.0
CC(=O)N1CCc2c(sc3c2c(=O)n(-c2ccccc2)c(=O)n3CC(=O)NCC2CCCO2)C1 (stereo unspecified),19.0,0.8,1.4%,-0.3,-0.2,-5.0
CCn1c(C)nc2cc(C(=O)NNC(=O)CCC3CCCCC3)ccc21,14.4,0.0,-0.8%,-0.1,-9.5,-1.2
O=S(=O)(c1ccc(Cl)cc1)c1cnc(-c2cccnc2)nc1-c1ccccc1,11.1,-2.3,5.0%,0.0,2.4,-1.8
COc1ccc(-c2cc(C)no2)cc1S(=O)(=O)Nc1cccc(C)c1,46.9,-0.9,5.9%,0.0,5.0,3.3
O=c1cc(C(F)F)oc2c1ccc1ccccc12,-7.8,-8.4,.,-0.3,-10.4,-3.1
NCCCCCc1cn([C@@H](CO)C(=O)NCCCCCCCCCCC(=O)N2CCNCC2)nn1,16.7,6.6,1.3%,-0.2,-42.7,-0.2

# Following part
SMILES,TRPML1 inh,Six1-Eya2 inh,PINK1 expr mod,TRPML1 ag,D2 potentiator,D2 ag
Cc1nn(C)cc1C(C)Nc1nc2nonc2nc1N1CCCCC1 (stereo unspecified),7.0,4.8,0.0%,-0.1,-1.8,-3.6
c1ccc(Cn2c(Nn3cnnc3)nc3ccccc32)cc1,12.3,2.6,1.8%,-0.6,-11.7,-1.5
Cc1cccc(C)c1OCC(=O)Nc1nc(-c2ccc(Br)cc2)ns1,-2.6,.,0.6%,1.8,.,.
CN(C)S(=O)(=O)c1ccc(C(=O)NCCSc2c(-c3ccccc3)[nH]c3ccccc23)cc1,11.9,.,1.0%,0.0,.,.
CC(=O)N1CC2(CC(=O)OC(C)C)CN(C(C)=O)CC(CC(=O)OC(C)C)(C1)C2=O,11.5,0.0,-0.6%,-0.3,20.2,-0.3
O=C(Nc1ccc(Cl)c(S(=O)(=O)N2CCOCC2)c1)C1=NN(c2ccccc2)C(=O)CC1,6.0,?,2.7%,-0.1,-3.4,2.0
C=CC[C@@H](Cc1ccc(F)cc1)C(=O)OC[C@@H]1CCCN1C(=O)[C@H](CC=C)CC(=O)N[C@H](CO)Cc1ccccc1,-6.1,-3.0,-0.7%,0.4,0.3,3.1
O=C1NCCN1CCN1C(=O)c2ccccc2NC1c1ccccc1 (stereo unspecified),-1.0,-2.4,3.2%,-0.5,-3.8,-1.3
NC(=S)NN=C1CSSC1,-3.2,-93.9*,3.0%,-1.0,-22.1,0.4
Cc1ccc(/C=N/NC(=O)c2cccs2)cc1[N+](=O)[O-],12.5,-8.0,-0.1%,0.5,-14.1,-0.6
COc1ccc(OCC(=O)N(Cc2cccs2)C2CCS(=O)(=O)C2)cc1 (stereo unspecified),2.0,-0.8,-1.0%,4.1,-6.0,0.5
COc1ccccc1-c1nnc(SCC(=O)N2CCOCC2)o1,-9.9,-2.6,1.1%,-0.1,-3.5,2.2

# From PubChem
